Screening results from PubChem.
Cruzain inh Det – qHTS Assay for Promiscuous and Specific Inhibitors of Cruzain (with detergent). Cruzipain (Trypanosoma cruzi), P25779. purified cruzain, Z-FR-AMC fluorescence, 0.01% Triton. Potency, µM, for the others: max response, negative = inhibition, usual class: inhibitors. 200,000 tested, 0.43% active. AID 1478, 2009;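 note: plate controls were neutral wells for no effect and buffer without enzyme for full effect; nearly all actives have a fitted effect of over 40% in size; top concentration of the series not given in the record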
Target sequence (P25779 123-467 limits assumed): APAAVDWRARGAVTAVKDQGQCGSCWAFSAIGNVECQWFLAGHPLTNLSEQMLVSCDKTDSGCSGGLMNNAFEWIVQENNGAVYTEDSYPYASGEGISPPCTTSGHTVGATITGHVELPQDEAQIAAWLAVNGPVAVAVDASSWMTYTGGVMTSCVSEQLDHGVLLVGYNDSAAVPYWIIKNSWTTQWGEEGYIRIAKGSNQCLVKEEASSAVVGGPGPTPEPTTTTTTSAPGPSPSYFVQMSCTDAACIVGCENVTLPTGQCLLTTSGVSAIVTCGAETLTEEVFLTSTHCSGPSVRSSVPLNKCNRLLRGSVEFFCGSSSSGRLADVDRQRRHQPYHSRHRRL
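Cysteine protease activity tested under reducing, mildly acidic conditions (100 mM sodium acetate pH 5.5, 5 mM DTT) plus 0.01% Triton X-100. Cruzain 1.5 nM; substrate Z-FR-AMC 2 uM; 15 min compound preincubation at room temperature.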
Cruzain noTriton – qHTS Assay for Promiscuous and Specific Inhibitors of Cruzain (without detergent) | Cruzipain (Trypanosoma cruzi), P25779 | purified cruzain, Z-FR-AMC fluorescence, no detergent | Potency, µM, for inactives: max response, negative = inhibition, actives largely listed as inhibitors | 200,000 tested, 2.3% active;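 note: plate controls were enzyme without inhibitor for no effect and buffer without enzyme for full effect; nearly all actives have a fitted effect of over 40% in size; top concentration of the series not given in the record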
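Purified cruzain at 1.5 nM, pre-incubated 15 min with compound at room temperature in 100 mM sodium acetate pH 5.5, 5 mM DTT, 0.00005% Triton X-100. Reaction started with 2 uM Z-FR-AMC; AMC fluorescence increase over 60 s gives rate.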
NS1 function inh – qHTS Assay for Inhibitors of Influenza NS1 Protein Function | S. cerevisiae slowed by influenza A NS1, growth recovery by OD600 | Potency, µM (series often up to 46.1 µM), without a hit: top-dose activity, positive = more growth | 270,000 tested, 0.4% active | AID 2326, 2010; active means well fitted rising curve with a large enough effect; inconclusive means small, poorly fitted or top-dose-only effect; inactive means no such curve, though single readings can be large or run the other way; note: nearly all actives have a fitted effect of over 50% in size
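Growth recovery, yeast-based: influenza A NS1 expressed in S. cerevisiae causes slow growth, and suppressors are detected by OD600. The parent strain without NS1 is used as positive control.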
* hit, by the source's call. Unless noted, calls come from the whole dose curve; as a rule, active = well fitted curve in the direction sought with a large enough effect; inconclusive = small, poorly fitted or top-dose-only effect, or another doubt; inactive = no such curve, though single readings can be large; an effect the other way counts as inactive or inconclusive. Potency is the fitted concentration of half-maximal effect.

SMILES	Cruzain inh Det	Cruzain noTriton	NS1 function inh
CC[C@H]1CC[C@H]2[C@@H]3CC=C4C[C@H](OC(C)=O)[C@@H](N)C[C@@]4(C)[C@H]3CC[C@@]12C	-0.8%	-5%	-10%
NCCNC[C@H](O)CO	0.4%	0%	6%
O=S1(=O)[C@H]([C@H]2CC3c4ccccc4C2c2ccccc23)[C@@H](N2CCCCC2)[C@@H]1c1ccccc1	-1.1%	-13%	-3%
N[C@@H](Cc1c[nH]c2cc([N+](=O)[O-])ccc12)C(=O)O	2.6%	15%	0%
C[C@@](N)(/C=C\c1ccccc1)C(=O)O	2.3%	6%	3%
O=C(SCc1cccc2ccccc12)c1ccc(Cl)cc1	-0.2%	-10%	-3%
O=C(O)Cc1cccnc1	5.1%	2%	-1%
Cc1c(Cl)c(S(N)(=O)=O)cc(S(N)(=O)=O)c1NC(=O)c1ccc(Cl)cc1	-2.3%	-3%	-3%
O=C(c1ccc([N+](=O)[O-])cc1)[C@@H](Br)[C@@H](Br)c1ccnc2ccccc12	0.8%	-25%	-38%
CN(C)Cc1cc(C(=O)O)cc(CN(C)C)c1O	4.3%	-3%	-7%
N[C@@H](Cc1cccc([N+](=O)[O-])c1)C(=O)O	-4.1%	9%	5%
N=C(N)SCCON1C(=O)c2ccccc2C1=O	0.1%	11%	8%
NCCNC(=S)S	0.8%	4%	-30%
O=C(O)C[C@H](S)C(=O)O	2.7%	-8%	-4%
O=C(O)C(Oc1nc(=S)[nH]c(=S)[nH]1)(c1ccc(Cl)cc1)c1ccc(Cl)cc1	3.1%	1%	-3%

Reprinted from the part before: 5 compounds; new compounds follow.
SMILES	Cruzain inh Det	Cruzain noTriton	NS1 function inh
N[C@@H](Cc1cccc([N+](=O)[O-])c1)C(=O)O	-4.1%	9%	5%
N=C(N)SCCON1C(=O)c2ccccc2C1=O	0.1%	11%	8%
NCCNC(=S)S	0.8%	4%	-30%
O=C(O)C[C@H](S)C(=O)O	2.7%	-8%	-4%
O=C(O)C(Oc1nc(=S)[nH]c(=S)[nH]1)(c1ccc(Cl)cc1)c1ccc(Cl)cc1	3.1%	1%	-3%
CC(C)[C@]1(O)[C@@H](OC(=O)c2ccc[nH]2)[C@]2(O)[C@@]3(C)C[C@@]4(O)O[C@@]5([C@H](O)[C@@H](C)CC[C@]35O)[C@]2(O)[C@]41C	2.1%	-3%	-6%
Cn1c(=O)c2[nH]c([C@@H]3CC(=O)C[C@H](c4nc5c([nH]4)c(=O)n(C)c(=O)n5C)N3)nc2n(C)c1=O	3.3%	3%	-5%
CN(C)C[C@H]1CCC[C@@H](CN(C)C)C1=O	7.5%	-3%	-3%
CO[C@@H]1/C=C\O[C@@]2(C)Oc3c(C)c(O)c4c(c3C2=O)C(=N[C@H]2CC[C@H](O)O[C@@H]2C)C=C(NC(=O)/C(C)=C\C(=O)[C@@H]2C[C@@H]2[C@@H](O)[C@H](C)[C@@H](O)[C@H](C)[C@H](OC(C)=O)[C@@H]1C)C4=O	0.9%	5%	4%
Oc1ccc(Cl)cc1C=Nc1cnc2ccccc2c1	2.7%	-9%	0%
c1ccc2c(c1)c1ccccc1n2Cn1c2ccccc2c2ccccc21	-1.3%	-5%	6%
O=C(O)c1nnsc1COCc1ccccc1	1.0%	6%	-3%
c1nc(N2CC2)c2cnn([C@@H]3CCCCO3)c2n1	-0.4%	-2%	-4%
O=S(=O)(c1ccccc1)N1CN2CN(C1)CN(S(=O)(=O)c1ccccc1)C2	2.6%	5%	3%
CC(C)=CCNc1ncnc2nc[nH]c12	8.0%	-6%	-1%
O=[N+]([O-])c1ccc(S(=O)(=O)Cc2ccccc2)c([N+](=O)[O-])c1	1.9%	5%	-31%
Cn1c(=O)c2[nH]c(CS(=O)(=O)Cc3nc4c([nH]3)c(=O)n(C)c(=O)n4C)nc2n(C)c1=O	6.4%	0%	-3%
N[C@H](CO)C(=O)NCC(=O)O	-2.2%	2%	-1%
CO[C@@H]([CH2][Hg])CN1C(=O)c2ccccc2S1(=O)=O.Cn1c(=O)c2nc[nH]c2n(C)c1=O	2.2%	-1%	-10%
OC[C@@H]1O[C@H](n2cnc3c(/C=C(\O)c4ccccc4)ncnc32)[C@H](O)[C@@H]1O	0.2%	3%	-1%
N#C/C(=C\Nc1ccccn1)C(=O)c1ccco1	0.2%	1%	3%
CC(C)c1cc(CN(C)C)c(O)c(C(C)(C)C)c1	3.6%	7%	0%
O=C(O)c1cc(-c2ccc3cc4c(cc3c2)OCO4)nc2ccccc12	-3.8%	-6%	-8%
c1ccc2nc(CC[C@@H]3CCCCN3)ccc2c1	0.5%	-13%	1%
COc1ccc(Cc2ccccc2C(=O)O)c2ccccc12	-3.5%	-3%	0%
O=C(Nc1cccc2cccnc12)[C@@H]1[C@@H](C(=O)O)[C@H]2CC[C@@H]1O2	0.8%	-5%	0%
CC(C)C(=O)Cc1ccc2ccccc2n1	2.2%	-7%	3%
Cn1c(=O)c2c(nc(Cc3ccccc3)n2CC(=O)O)n(C)c1=O	0.4%	5%	-3%
O=C(O)CS(=O)c1ccc2c3c(cccc13)C(=O)c1ccccc1-2 (stereo not drawn)	1.1%	-8%	-7%
C[C@H](OP(=O)(O)O)[C@H](N)C(=O)O	-0.5%	3%	0%
CC1=C(CC[C@H](C)CO)O[C@@H]2C[C@@H]3[C@H]4CC[C@H]5C[C@@H](O)CC[C@]5(C)[C@@H]4CC(=O)[C@@]3(C)[C@@H]12	2.3%	-5%	-11%
Cc1cccc(C(=O)O)c1C[C@H]1NCC[C@H]2c3ccccc3N[C@@H]12	2.2%	-5%	-3%
c1cncc(CSc2ncnc3nc[nH]c23)c1	-1.4%	-2%	-2%
Cc1cc(=O)[nH]c2cc3oc4ccccc4c3cc12	-3.9%	-4%	-14%
C[C@H]1CC(C)(C)C[C@@](OCCN2CCCCC2)(c2ccccc2)C1	7.8%	16%	-16%
N=C(N)SCCSC(=N)N	3.1%	1%	1%
CC(=O)n1c(COS(C)(=O)=O)nc2ccccc21	4.9%	-14%	1%
CS(=O)(=O)O[C@H]1CN2CCC1CC2	2.0%	2%	-4%
O=C(O)CCc1nc2ccccc2[nH]1	5.4%	7%	-6%
C[C@@]12CC[C@@H]3[C@@H](CC[C@H]4C[C@@H](O)CC[C@]43C)[C@H]1CC[C@@H]2c1cc(C(F)(F)F)n[nH]1	-0.8%	-2%	-45%
ClC(=Nc1cccc2ccccc12)N(c1ccccc1)c1ccccc1	3.2%	-5%	-7%
Oc1c(Cl)cc(C(c2cc(Cl)c(O)c(Cl)c2)C(c2cc(Cl)c(O)c(Cl)c2)c2cc(Cl)c(O)c(Cl)c2)cc1Cl	-0.8%	-24%	20%
CC(C)CNCCc1ccccn1	3.1%	7%	0%
CCC(=O)Nc1ncnc2ncn(C(=O)CC)c12	1.5%	20%	3%
O=CN1CCN(C[C@H](O)CN2CCCCC2)CC1	2.9%	9%	-6%
CC(=O)Nc1nc2ncc(C=O)nc2c(=O)[nH]1	-4.6%	6%	-6%
O=C(O)c1ccccc1NCn1c(=S)sc2ccccc21	13%	4%	0%
Cn1c(=O)c2[nH]c(CCC(=O)O)nc2n(C)c1=O	3.1%	3%	8%
C[C@H]1[C@H](C)OC(=O)C[C@H](O)C[C@H](O)C[C@H](O)CC[C@H](O)[C@H](O)CC(=O)C[C@H](O)[C@H](C(=O)O)[C@H](O)C[C@H](O[C@@H]2O[C@@H](C)[C@H](O)[C@@H](N)[C@@H]2O)C=CC=CC=CC=CCCC=CC=C[C@@](C)(O)[C@H]1O	-0.2%	13%	-42%
NS(=O)(=O)c1nc(S(=O)(=O)O)c2[nH]cnc2n1	-4.0%	-1%	-1%
Cc1c(-c2nc(N)nc(C3CC3)c2C)nc(N)nc1C1CC1	1.1%	4%	-6%
CC1(C)O[C@@H]2O[C@H]([C@@H]3COC(C)(C)O3)[C@H](N)[C@H]2O1	2.2%	3%	-1%
N#CCCSC(=S)[C@H]1CCCC1=N	0.5%	-2%	2%
Cc1cc(N)c2cc(NC(=O)Nc3ccc4nc(C)cc(N)c4c3)ccc2n1	-17%	-7%	-77%
NCCCc1c(-c2ccccc2)nc(N)[nH]c1=O	-0.7%	9%	-8%
NC(=O)C/C=C\CC(N)=O	2.0%	28%	-3%
C/C(=N/NC(=O)c1ccncc1)c1ccccc1Cl	2.1%	9%	0%
Nc1nc(N)c2[nH]c(CNc3ccc(C(=O)O)cc3)nc2n1	2.7%	4µM*	-9%
Cc1cc(C)cc(C(=N)c2ccccc2Cc2cccc3ccccc23)c1	-1.4%	-10%	-11%
COc1ccc(C(=O)O[C@H]2CC[C@@]3(C)[C@H]4CC[C@H]5[C@]3(C[C@]3(O)[C@H]6CN7C[C@H](C)CC[C@H]7[C@](C)(O)[C@]6(O)[C@H](O)C[C@]53O)O[C@]24O)cc1OC	4.1%	-6%	-8%
O=C(O)[C@@H]1[C@@H](C(=O)Nc2ccccc2)[C@@H]2C=C[C@@H]1O2	3.9%	13%	-1%
CN1CCc2ccccc2[C@@H]1Cc1ccccc1NC(=O)c1sc2ccccc2c1Cl	-6.1%	-6%	8%
NC(N)=NC(N)=Nc1ccc(S(N)(=O)=O)cc1	-0.2%	-1%	-3%
O[C@@H](COc1ccc(Cl)cc1Cl)CN1CCCC1	-2.4%	-3%	-3%
Cc1nn(-c2ccc(S(=O)(=O)O)cc2)c(O)c1N=Nc1ccc(-c2ccc(N=Nc3ccc4c(S(=O)(=O)O)cc(S(=O)(=O)O)c(N)c4c3O)c(O)c2)cc1O.[Cu].[Cu]	-5.6%	1%	-3%

Later entries
SMILES	Cruzain inh Det	Cruzain noTriton	NS1 function inh
CCSCCCC(=O)O	2.2%	-9%	1%
CC(=O)O[C@H]1CC[C@@]2(C)[C@@H](CC[C@H]3[C@H]2CC(=O)[C@]2(C)[C@@H]3C[C@@H](N3CC3)[C@H]2C(C)=O)C1	-1.1%	-4%	7%
Nc1nc(SCc2ccccc2[N+](=O)[O-])c2[nH]cnc2n1	0.7%	2%	0%
CCOC(=O)c1c2c(n3ccccc13)C(=O)c1ccccc1C2=O	7.4%	-1%	-15%
NCC(=O)NC1(C(=O)O)CCCC1	3.4%	1%	-6%
Cc1nc(N)nc2ccccc12	1.7%	6%	0%
O=[N+]([O-])c1ccccc1N=Nc1c(O)[nH]c2ccc(S(=O)(=O)O)cc12	-1.8%	-7%	-13%
Nc1cccc(OCc2nc(N)nc(N)c2-c2ccc(Cl)cc2)c1	-11%	-15%	13%
NCC[Se][Se]CCN	2.9%	-6%	1%
Cc1ccc(/C(C#N)=C/c2cccc([N+](=O)[O-])c2)cc1	2.3%	1%	-4%
CN(Cc1ccccc1)Cn1ccnc1	-0.5%	4%	-7%
Cc1ccc2nc(N/N=C\c3cccc(C)n3)cc(C)c2c1	-1.3%	-13%	-10%
O=C(O)[C@H]1[C@H](C(=O)O)[C@H](C(=O)O)C[C@@H]1C(=O)O	0.6%	15%	-2%
O=C(O)C[C@@H](C(=O)O)c1ccccc1[N+](=O)[O-]	3.2%	11%	-1%
CCC[C@H](Sc1nc(N)nc2nc[nH]c12)C(=O)O	-0.1%	7%	-3%
CC(C)(C)C1CCC2(CC1)CCN(CCCN1CCOCC1)CC2	-0.6%	-2%	-8%
CN(C)Cc1ccc(-c2cc3onc(-c4ccccc4)c3c(=O)n2C)cc1	6.3%	2%	-11%
Cc1ccc(S(=O)(=O)Nc2ccccc2C=O)cc1	-1.7%	1%	-44%
O=C(O)[C@@H](O)[C@@H](O)C1[O][Sb][O][C@@H]1CO (stereo partly drawn)	3.7%	5%	0%
N#C[C@H](c1ccccc1)N1CCCN([C@@H](C#N)c2ccccc2)C1c1ccccc1O (stereo partly drawn)	-1.1%	-1%	-11%
CCN(CC)CC[n+]1ccc2c(C)c3[nH]c4ccccc4c3c(C)c2c1	-4.8%	-12%	-10%

Rewritten with two lines to a compound: six of the compounds above
Every second line gives: Cruzain inh Det | Cruzain noTriton | NS1 function inh
Cc1ccc(S(=O)(=O)Nc2ccccc2C=O)cc1
    -1.7% | 1% | -44%
CN(C)Cc1ccc(-c2cc3onc(-c4ccccc4)c3c(=O)n2C)cc1
    6.3% | 2% | -11%
CC(C)(C)C1CCC2(CC1)CCN(CCCN1CCOCC1)CC2
    -0.6% | -2% | -8%
CCN(CC)CC[n+]1ccc2c(C)c3[nH]c4ccccc4c3c(C)c2c1
    -4.8% | -12% | -10%
O=C(O)[C@@H](O)[C@@H](O)C1[O][Sb][O][C@@H]1CO (stereo partly drawn)
    3.7% | 5% | 0%
N#C[C@H](c1ccccc1)N1CCCN([C@@H](C#N)c2ccccc2)C1c1ccccc1O (stereo partly drawn)
    -1.1% | -1% | -11%

These rows are one share of the data; count on the stated rates, not on these rows.
